# VACV mCherry inh = inhibitors of vaccinia virus infection (mCherry reporter signal) | actives 0.63% (n = 310,000) | Vaccinia virus mCherry reporter infection, fluorescence; about a quarter of the inactives have no number | Potency, µM (highest dose often 36.5 µM), without a hit: at the top dose activity change, negative = inhibition, actives largely listed as inhibitors; active = well fitted inhibition curve with a large enough effect; inconclusive = small, poorly fitted or top-dose-only effect; inactive = no such curve, though single readings can be large or run the other way; tested in A549 cells; further: nearly all actives have a fitted effect of over 35% in size; inactives centre near -10
# VACV Venus inh = inhibitors of vaccinia virus (Venus reporter); Vaccinia virus Venus reporter expression, fluorescence; Potency, µM (doses to about 36.5 µM), for the others: at the highest dose activity change, negative = inhibition, actives largely listed as inhibitors; actives 0.46% (n = 330,000); active means well fitted inhibition curve with a large enough effect; inconclusive means small, poorly fitted or top-dose-only effect; inactive means no such curve, though single readings can be large or run the other way; tested in A549 cells; further: nearly all actives have a fitted effect of over 30% in size; inactives centre near -10
# * hit, by the source's call; i = inactive; ? = inconclusive; & = joins results of further samples; [ ] = remark or other dose. On the % scale 0 is the no-effect control and ±100 the full control effect; potency means the concentration at half of the fitted maximal effect.
[1] CC1CN(c2nc(-c3ccc(Br)cc3)nnc2-c2ccccc2)CC(C)N1 (stereo not given)
[2] O=C(O)c1ccc(N2C(=O)/C(=C\c3ccccc3)N=C2c2ccccc2)cc1
[3] CCCCCCCCCCCCCCCCOCC(CO)OC (stereo not given)
[4] COC(=O)c1ccc(Cn2c(SCC(=O)NCc3ccccc3)nc3ccccc32)cc1
[5] NNC(=O)c1cncc(Br)c1
[6] COC(=O)C1=C(c2ccc(S(C)(=O)=O)cc2)C[C@@H]2CC[C@H]1N2C(=O)NCC1CC1
compound no.	1	2	3	4	5	6
VACV mCherry inh	?	i	-2.2%[3.33 µM]	-18.6%	-27.1%	-12.0%
VACV Venus inh	?	13.8%	-13.6%[3.33 µM]	0.5%	-19.9%	-8.1%

[7] O=C(NCCCCCCCCNC(=O)c1cccc2ccccc12)c1cccc2ccccc12
[8] CC(=O)OC1C2CCC1C([N+]1(C)CCCCC1)CC2 (stereo not given)
[9] Cc1ccccc1C(=O)Nc1ccc(O)c2c(=O)cc(-c3ccccc3Cl)oc12
[10] COc1ccc(S(=O)(=O)Cc2ccc(C(=O)NC3CCCCC3)o2)cc1
[11] CN(C)c1ccc(/C=N\NC(=S)SCN2C(=O)C3CCC(C)(C2=O)C3(C)C)cc1 (stereo not given)
[12] CCOc1ccccc1C(=O)N(C)CC(=O)Nc1ccc(OC)cc1
compound no.	7	8	9	10	11	12
VACV mCherry inh	-0.8%	-2.3%	i	-0.5%	-17.0%	-4.2%
VACV Venus inh	-12.7%	-4.1%	-10.1%	-11.2%	-11.4%	-14.1%

[13] O=C(C1CCC(Cn2c(=O)c3sccc3n(Cc3ccccc3)c2=O)CC1)N1CCOCC1 (stereo not given)
[14] COc1ccc(NS(=O)(=O)c2cc(NC(=O)c3ccc(C)s3)ccc2N2CCOCC2)cc1
[15] CCCc1[nH]nc2c1C(c1ccccc1OC)C(C#N)=C(N)O2 (stereo not given)
[16] CCN(CC)C(=O)CSc1nc2cc3c(cc2c(=O)n1CCCC(=O)NCc1ccc2c(c1)OCO2)OCO3
[17] Cc1cccc(OC(=O)c2snnc2C)c1C
[18] CCOC(=O)c1c(CC(C)C)csc1NC(=O)CCl
compound no.	13	14	15	16	17	18
VACV mCherry inh	-7.2%	-1.1%	-11.7%	-16.1%	-8.1%	-12.8%
VACV Venus inh	-7.8%	-14.7%	-20.2%	-13.8%	-11.5%	-1.9%

# Compound profiles, from the list above:
# Cc1cccc(OC(=O)c2snnc2C)c1C reads VACV mCherry inh: -8.1%; VACV Venus inh: -11.5%
# CCN(CC)C(=O)CSc1nc2cc3c(cc2c(=O)n1CCCC(=O)NCc1ccc2c(c1)OCO2)OCO3 reads VACV mCherry inh: -16.1%; VACV Venus inh: -13.8%

# (list continues)
[19] Cc1nc2nc[nH]n2c(=O)c1NS(C)(=O)=O
[20] O=C1OCC2=C1C(c1ccccc1)CC(=O)N2c1cccc(F)c1 (stereo not given)
[21] CCC(=O)N1CCN(c2ccc(Cl)cc2NC(=O)c2cccc([N+](=O)[O-])c2)CC1
[22] Cc1noc(C)c1C(=O)N1CCC1(C)C(=O)NS(=O)(=O)c1cccs1 (stereo not given)
[23] CCOc1ccc(S(=O)(=O)N2CCN(C(=O)c3ccc(C)c(S(=O)(=O)N4CCOCC4)c3)CC2)cc1
[24] COc1ccc(/C=N/NC(=O)c2ccc(O)cc2)cc1CN1CCCc2ccccc21
compound no.	19	20	21	22	23	24
VACV mCherry inh	-14.2%	1.6%	-1.6%	16.7%	?	i
VACV Venus inh	-5.0%	-5.7%	-6.5%	-5.2%	-27.6%	-16.6%

[25] COc1ccc(F)c(-c2nc(CN3CCC(c4ccccc4)CC3)c(C)o2)c1
[26] Cc1cc(C(=O)N2CCCC(N3CCN(c4cccc(Cl)c4)CC3)C2)nc(C)n1 (stereo not given)
[27] O=C1c2ccccc2C(Nc2ccccc2)N1c1cccnc1 (stereo not given)
[28] COc1ccc(Br)c(C(=O)Nn2c(C)nc3ccccc3c2=O)c1
[29] Cn1c(O)c(C=Nc2ccccc2-c2ccccc2)c(=O)n(C)c1=O
[30] O=C(Nc1nc(-c2cccs2)cs1)c1cccc(S(=O)(=O)N2CCCCCC2)c1
compound no.	25	26	27	28	29	30
VACV mCherry inh	-15.5%	-16.0%	22.8%	-12.0%	i	?
VACV Venus inh	-4.6%	-10.1%	5.8%	-12.5%	-20.2%	?

[31] COc1ccccc1C=NNc1nc(C)cc(=O)[nH]1
[32] COc1ccc(N2CCN(C(=O)c3ccc4nc(N5CCCCC5)sc4c3)CC2)cc1
[33] O=C(NC12CC3CC(CC(C3)C1)C2)c1cncc(Br)c1
[34] COc1ccc(N2CCN(c3nc4ccccn4c(=O)c3C=O)CC2)cc1
[35] Cc1ccc(C)c(NC(=O)C2CCCN(S(=O)(=O)c3cccc4nsnc34)C2)c1 (stereo not given)
[36] COc1ccc(C(=O)NC(=S)NNC(=O)c2ccc(O)cc2)cc1[N+](=O)[O-]
compound no.	31	32	33	34	35	36
VACV mCherry inh	-13.2%	-5.1%	66.3%[activator]	i	-10.7%	-28.6%
VACV Venus inh	-3.9%	-4.9%	-7.0%	-15.8%	6.9%	-3.2%

[37] COc1ccccc1C(=O)NNC(=O)c1cccc([N+](=O)[O-])c1
[38] Cc1ccc(C(=O)c2oc3ccccc3c2NC(=O)COc2ccc(C(C)(C)C)cc2)cc1
[39] COc1ccc(C(=O)OCCc2cc3ccccc3c(=O)o2)cc1
[40] Cc1[nH]n(C(N)=S)c(=O)c1N=Nc1cc(-c2ccc(Br)cc2)[nH]n1
[41] Cc1ccc(CSC(Nc2ccc(F)cc2)=C(C#N)C#N)cc1
[42] CC(C)C1CC(C(=O)Nc2ccccc2)C(=O)O1 (stereo not given)
compound no.	37	38	39	40	41	42
VACV mCherry inh	-9.0%	-7.6%	i	-13.6%	-13.1%	-13.1%
VACV Venus inh	-4.8%	-2.2%	-7.3%	0.6%	?	-1.8%

[43] COc1ccc(C)cc1NC(=O)Cn1c(=O)oc2cc(S(=O)(=O)NCc3ccccc3)ccc21
[44] Cc1noc(C)c1COc1ccccc1C(=O)NCCc1ccc(F)cc1
[45] CCN1CCN(C(=O)c2ccc(COc3cccc(Cl)c3)o2)CC1
[46] O=C(CSc1nc(O)c(-c2ccccc2)c(=O)[nH]1)N1CCOCC1
[47] CCc1c(C(=O)O)[nH]c2ccc(Br)cc12
[48] Nc1ccc(S(=O)(=O)Nc2ccccn2)cc1
compound no.	43	44	45	46	47	48
VACV mCherry inh	-15.6%	-10.9%	-12.2%	-15.9%	-26.5%	-11.8%&-2.9%
VACV Venus inh	-10.3%	-7.3%	-8.3%	-5.5%	-17.6%	-11.7%&-12.0%

[49] CCOC(=O)c1cc(-c2ccccc2)n(CC2CC(c3ccc(OC)cc3)=NO2)n1 (stereo not given)
[50] CCOc1ccc(S(=O)(=O)NCCC2=CCCCC2)c2ccccc12
[51] CCN(CC1CCCO1)C(=O)CCc1nnc(CCc2ccccc2OC)o1 (stereo not given)
[52] CCC(=O)N1CCc2cc(Br)cc(S(=O)(=O)NCc3ccccc3OC)c21
[53] COc1ccc2c(c1)O[C@@H](c1cccc(C(F)(F)F)c1)[C@H](OC(=O)Nc1ccc(OC(F)F)cc1)C2=O
[54] O=C(CCOc1ccccc1)Nc1ccc(Cl)c(S(=O)(=O)N2CCOCC2)c1
compound no.	49	50	51	52	53	54
VACV mCherry inh	-11.6%	-10.4%	i	-5.0%	-24.3%	?
VACV Venus inh	-7.3%	-16.4%	-10.8%	-4.0%	?	?

[55] Cn1cc(S(=O)(=O)N2CCN(c3cccc(C(F)(F)F)c3)CC2)c(=O)n(C)c1=O
[56] CCCn1c(N)c(NCCN2CCOCC2)c(=O)n(CC(=O)NCc2ccccc2)c1=O
[57] COc1ccccc1C(=O)Nc1cccc(C(=O)OCc2cc(=O)n3ccsc3n2)c1
[58] CSCCC(NC(=O)c1ccccc1)C(=O)NCc1ccco1 (stereo not given)
[59] O=C(CSc1nn(-c2ccc(F)cc2)c(=S)s1)NC1CCS(=O)(=O)C1 (stereo not given)
[60] Cc1ccc(NC(=O)CN2C(=O)S/C(=C/c3ccncc3)C2=O)cc1
compound no.	55	56	57	58	59	60
VACV mCherry inh	-2.1%	-2.2%	-8.6%	-20.4%	-11.4%	i
VACV Venus inh	-6.5%	-0.9%	-7.6%	-6.5%	-7.2%	-11.1%

[61] CN(C(=O)CS(=O)(=O)c1cn(CC(=O)N2CCCCC2)c2ccccc12)c1ccccc1
[62] CCOC(=O)C1=C(C)N(C)C(=O)NC1c1c(O)ccc2ccccc12 (stereo not given)
[63] CCN1CCN(CCC(=O)Nc2ccc(Br)cc2)CC1
[64] Cc1ccc(N2CC(C(=O)N/N=C/c3c(F)cccc3Cl)CC2=O)cc1 (stereo not given)
compound no.	61	62	63	64
VACV mCherry inh	-15.5%	i	-22.9%	-20.6%
VACV Venus inh	-8.8%	-10.6%	-16.8%	?

# Among those listed so far, 15 have four or more nitrogen atoms.
[1] CC1CN(c2nc(-c3ccc(Br)cc3)nnc2-c2ccccc2)CC(C)N1 (stereo not given)
[11] CN(C)c1ccc(/C=N\NC(=S)SCN2C(=O)C3CCC(C)(C2=O)C3(C)C)cc1 (stereo not given)
[15] CCCc1[nH]nc2c1C(c1ccccc1OC)C(C#N)=C(N)O2 (stereo not given)
[16] CCN(CC)C(=O)CSc1nc2cc3c(cc2c(=O)n1CCCC(=O)NCc1ccc2c(c1)OCO2)OCO3
[19] Cc1nc2nc[nH]n2c(=O)c1NS(C)(=O)=O
[21] CCC(=O)N1CCN(c2ccc(Cl)cc2NC(=O)c2cccc([N+](=O)[O-])c2)CC1
[26] Cc1cc(C(=O)N2CCCC(N3CCN(c4cccc(Cl)c4)CC3)C2)nc(C)n1 (stereo not given)
[31] COc1ccccc1C=NNc1nc(C)cc(=O)[nH]1
compound no.	1	11	15	16	19	21	26	31
VACV mCherry inh	?	-17.0%	-11.7%	-16.1%	-14.2%	-1.6%	-16.0%	-13.2%
VACV Venus inh	?	-11.4%	-20.2%	-13.8%	-5.0%	-6.5%	-10.1%	-3.9%

[32] COc1ccc(N2CCN(C(=O)c3ccc4nc(N5CCCCC5)sc4c3)CC2)cc1
[34] COc1ccc(N2CCN(c3nc4ccccn4c(=O)c3C=O)CC2)cc1
[35] Cc1ccc(C)c(NC(=O)C2CCCN(S(=O)(=O)c3cccc4nsnc34)C2)c1 (stereo not given)
[36] COc1ccc(C(=O)NC(=S)NNC(=O)c2ccc(O)cc2)cc1[N+](=O)[O-]
[40] Cc1[nH]n(C(N)=S)c(=O)c1N=Nc1cc(-c2ccc(Br)cc2)[nH]n1
[55] Cn1cc(S(=O)(=O)N2CCN(c3cccc(C(F)(F)F)c3)CC2)c(=O)n(C)c1=O
[56] CCCn1c(N)c(NCCN2CCOCC2)c(=O)n(CC(=O)NCc2ccccc2)c1=O
compound no.	32	34	35	36	40	55	56
VACV mCherry inh	-5.1%	i	-10.7%	-28.6%	-13.6%	-2.1%	-2.2%
VACV Venus inh	-4.9%	-15.8%	6.9%	-3.2%	0.6%	-6.5%	-0.9%
